Vaccinia Venus – vaccinia inhibition (Venus reporter); Vaccinia virus Venus reporter expression, fluorescence; Potency, µM (top dose mostly 36.5 µM), for inactives: top-dose activity change, negative = inhibition, hits mostly inhibitors; 330,000 tested, 0.46% active; AID 720580; active means well fitted inhibition curve with a large enough effect; inconclusive means small, poorly fitted or top-dose-only effect; inactive means no such curve, though single readings can be large or run the other way; tested in A549 cells; further: nearly all actives have a fitted effect of over 30% in size; inactives centre near -10
Vaccinia mCherry – vaccinia inhibition (mCherry reporter); Vaccinia virus mCherry reporter infection, fluorescence; about a quarter of the inactives have no number; Potency, µM (doses to about 36.5 µM), without a hit: at the highest dose activity change, negative = inhibition, hits mostly inhibitors; 310,000 tested, 0.63% active; AID 720579; active = well fitted inhibition curve with a large enough effect; inconclusive = small, poorly fitted or top-dose-only effect; inactive = no such curve, though single readings can be large or run the other way; tested in A549 cells; further: nearly all actives have a fitted effect of over 35% in size; inactives centre near -10
Numbers without * were called inactive; i = inactive; ? = inconclusive; · = no result given; & = joins results of further samples; [ ] = remark or other dose. On the % scale 0 is the no-effect control and ±100 the full control effect; potency means the concentration at half of the fitted maximal effect.

Every second line gives: Vaccinia Venus, Vaccinia mCherry
CS(=O)(=O)N1CCc2cc(-c3csc(NC(=O)Cc4cccs4)n3)ccc21
    ?, ?
O=C(NCCCn1cccn1)c1cc(COc2ccccc2)on1
    2%, -1%
CC(C)OCCCNC(=O)CN1C(=O)c2ccccc2Sc2ncccc21
    -2%, i
CNC(=S)N1CCc2sccc2C1C (centres undefined)
    -17%, 0%
O=C(c1ccncc1)N1CCN(S(=O)(=O)c2ccccc2F)CC1
    -3%, -15%
COc1cc2c(=O)n(Cc3ccccc3Cl)c(=O)n(CC(=O)Nc3ccccc3)c2cc1OC
    -1%, -22%
Cc1ccn2c(Nc3ccc4c(c3)OCO4)c(-c3ccc(Cl)cc3)nc2c1
    -8%, -5%
CN(CCc1ccccc1)C(=O)c1ccc(NC(=O)Cc2cccc(NC(=O)C3CCN(C(=O)C4CCC4)CC3)c2)cc1
    -4%, i
Cc1cn2c(=O)cc(COC(=O)c3ccc(NC(=O)C(C)Oc4ccccc4)cc3)nc2s1 (centres undefined)
    -3%, -14%
Cc1cccc(-c2nnnn2-c2cccc(C)c2)c1
    -10%, -7%
O=C(CCC(=O)CCN1CCCCC1)CCN1CCCCC1
    4%, 2%
CCOC(=O)C1=C(C)N(C)C(C)=C(C(=O)OCC)C1c1ccncc1
    ?, ?
CN(c1ccccc1C(=O)Nc1ccc(F)c(Cl)c1)S(C)(=O)=O
    -13%, -20%
CC(=O)OCC(=O)[C@H]1CC[C@H]2[C@@H]3CC[C@H]4C[C@H](O)CC[C@]4(C)[C@H]3C(=O)C[C@]12C
    -17%, i
CCCN(C(=O)COC(=O)c1[nH]c(C)c(C(=O)OC)c1C)c1c(N)n(Cc2ccccc2)c(=O)[nH]c1=O
    -6%, -4%
O=C1c2ccsc2SCCN1Cc1cccc(F)c1
    0%, -4%
CCN1C(=O)[C@H]2[C@@H](c3ccc(-c4ccc(OC)cc4)cc3)N3CCC[C@@]3(C(=O)OC)[C@H]2C1=O
    -16%, i
COCCCNC(=O)c1cc2c(=O)oc3ccc(C)cc3c2s1
    -2%[7.34 µM], -11%[7.34 µM]
CCCSc1nc(N)c(C#N)c(-c2ccc(C)cc2)c1C#N
    -12%, ·
CCc1ccccc1N(C)C(=O)c1cc2c(s1)-c1c(C)cccc1OC2
    -10%, -13%
O=C(NCCN1CCOCC1)c1ccc(F)cc1
    -9%, -2%
CCOC(=O)C1(C)CCN1C(=O)c1ccccc1OC(F)(F)F (centres undefined)
    3%, 14%
CCS(=O)(=O)NCCc1cc2ccc(C)cc2[nH]c1=O
    ?, ·
COc1cc([N+](=O)[O-])ccc1NC(=S)NNC(=O)CCC(=O)Nc1ccccc1Cl
    -9%, ?
O=C(CCC(=O)Nc1cccc(Cl)c1)N/N=C/c1cc([N+](=O)[O-])ccc1O
    -13%, -20%
N#C/C(=C\c1c(Cl)cccc1Cl)c1nc2ccccc2[nH]1
    -23%, -26%
Cc1nnc(NC(=O)CSc2nccn2Cc2ccc(Cl)cc2)s1
    -9%, -1%
Cn1c(C(=O)OC(C(=O)NCC2CCCO2)c2cccnc2)cc2sccc21 (centres undefined)
    -20%, i
O=C(N/N=C/c1ccc([N+](=O)[O-])o1)c1cc(-c2ccc(-c3ccccc3)cc2)nc2ccccc12
    -3%, ?
Cc1cccc[n+]1CCCCCCCCCC[n+]1ccccc1C
    -3%, i
Cc1noc(NS(=O)(=O)c2ccc(NC(=O)C34CC5CC(C3)CC(n3cnc(Br)n3)(C5)C4)cc2)c1C
    -12%, -6%
C=CC(COCc1ccccc1)N([C@@H](Cc1ccccc1)C(=O)OC)S(=O)(=O)c1ccccc1Br (some centres undefined)
    -16%&-12%, -29%
Cc1ccc(C)c(N/C=C(\C#N)c2nc3ccccc3o2)c1
    9%, 20%
CC12CC(NC(=O)N1c1cccc(C(=O)NCc3ccc4c(c3)OCO4)c1)c1cc(Cl)ccc1O2 (centres undefined)
    ?, ?
[O-][N+](=Cc1ccccc1)CC1(O)CCCCC1
    -14%, i
Cc1nn(C)cc1/C=N/NC(=O)c1sc2ccccc2c1Cl
    -26%, -31%
CN1CCN(CCCCOc2cccc3ccccc23)CC1
    -10%, i
COc1ccc(S(=O)(=O)N2CCC3(CC2)OCCO3)cc1
    0%, i
CCOC(=O)c1ccc(Nc2nnc(C)c3ccccc23)cc1
    2%, -11%
CCC1=[N+](CC(=O)c2ccc(C)cc2)CCn2cccc21
    -7%, -3%
CC1CCCCN1C(=O)Cn1c(=O)n(-c2ccc(Cl)cc2)c(=O)c2c3c(sc21)CCC3 (centres undefined)
    4%, -8%
Cc1ccc2nc(C)c(C(=O)NN=C3CCN(C)CC3)n2c1
    -21%, -18%
CCS(=O)(=O)c1nc(S(=O)(=O)c2ccc(C)cc2)c(N2CCCC(C)C2)s1 (centres undefined)
    -15%[7.34 µM], -13%[7.34 µM]
CCc1nn2c(=O)cc(COC(=O)c3cccc(NC(=O)c4cccs4)c3)nc2s1
    -11%, i
CC(=O)c1ccc(NC(=O)c2cc(CC(C)C)on2)cc1
    4%, 9%
O=C(O)c1cc(-c2ccc(Cl)cc2)n(-c2ccc(Cl)cc2)n1
    -8%, -26%
CCc1nn(CC(=O)Nc2ccc(C)cc2C)c(=O)c2cc3sccc3n12
    -8%, i
Cc1cccc(-n2ncc3c(NCc4ccccc4)ncnc32)c1
    -21%, -21%
COc1ccc(S(=O)(=O)N2CCOCC2)cc1C(C)C
    -13%, i
CC(=O)c1cccc(NS(=O)(=O)c2c(C)noc2C)c1
    -4%, -15%
CC1=C(C(=O)Nc2ccccc2C(=O)N2CCN(c3ccccc3)CC2)SCCO1
    0%, i
CCn1cnc2sc(C(=O)Nc3ccc4c(c3)OCO4)c(C)c2c1=O
    -12%, ·
CC1CCCCN1C(=O)CNCC1CCCO1 (centres undefined)
    -1%, 3%
C[C@H](CO)N1C[C@H](C)[C@@H](CN(C)S(=O)(=O)c2cccc(C#N)c2)OCc2cn(nn2)CCCC1=O
    -7%, -18%
CCc1ccc(CNC(=O)CCS(=O)(=O)Cc2ccccc2F)cc1
    -20%, 0%
Cn1nc(C(C)(C)C)c([N+](=O)[O-])c1C(N)=O
    -2%, i
CC1CN(C(=O)CCC(=O)NCc2cccnc2)c2ccccc2O1 (centres undefined)
    -18%, -5%
CCOCCCNC(=O)c1ccc(-n2c(-c3ccccc3)cc3c2CCCCC3)cc1
    -7%, 1%
CCCCNC(=O)CCn1c(=O)c2ccccc2n(CC(=O)Nc2ccccc2OCC)c1=O
    -11%, ·
CCC(=O)N(Cc1cc(=O)[nH]c2ccccc12)c1ccc(C)cc1
    -16%, -26%

Next part, starting with the last five of the part before.
Every second line gives: Vaccinia Venus, Vaccinia mCherry
Cn1nc(C(C)(C)C)c([N+](=O)[O-])c1C(N)=O
    -2%, i
CC1CN(C(=O)CCC(=O)NCc2cccnc2)c2ccccc2O1 (centres undefined)
    -18%, -5%
CCOCCCNC(=O)c1ccc(-n2c(-c3ccccc3)cc3c2CCCCC3)cc1
    -7%, 1%
CCCCNC(=O)CCn1c(=O)c2ccccc2n(CC(=O)Nc2ccccc2OCC)c1=O
    -11%, ·
CCC(=O)N(Cc1cc(=O)[nH]c2ccccc12)c1ccc(C)cc1
    -16%, -26%
CC(=O)Nc1ccc2c(c1)OCO2
    -10%, i
COc1cc(NS(=O)(=O)c2ccc(NC(=S)NC(=O)CC(C)C)cc2)nc(OC)n1
    ?, 11µM*
CCCCCCSc1ccc([C@H]2N[C@@](Cc3ccccc3)(C(=O)OC)[C@H]3C(=O)N(CC)C(=O)[C@@H]23)cc1
    ?, ?
COC(=O)c1sccc1NC(=O)Nc1cc(C)ccc1OC
    -10%, -15%
CCOC(=O)c1c(C)n(C)c2ccc(OC(C)=O)cc12
    -19%, ·
Cc1ccccc1N1CCN(S(=O)(=O)c2ccc3oc(=O)ccc3c2)CC1
    ?, ·
COc1ccc2nc(C(c3ccc(C)cc3)n3c(-c4ccccc4Br)nc4ccccc43)[nH]c2c1 (centres undefined)
    19%, i
CCOCCc1nn2c(=O)cc(COC(=O)c3ccccc3NC(=O)C3CCCCC3)nc2s1
    -18%, -12%
CCCc1nc2ccccc2c(=O)n1/N=C/c1ccc(O)cc1O
    -8%, ·
Cc1ccc(C(=O)NCCc2ccc(S(N)(=O)=O)cc2)o1
    -5%, i
COc1ccc(C(=O)OCCN=C2NS(=O)(=O)c3ccccc32)cc1OC
    -9%, i
Cn1c(=O)c2c(ncn2CC(=O)N/N=C/C(Cl)=C/c2ccccc2)n(C)c1=O
    -9%, i
CCOC(=O)c1ccccc1NC(=O)CSc1nc2ccccc2c(=O)n1CCCN1CCOCC1
    4%, -12%
COc1cc(OCc2ccccc2)c(C(=O)/C=C/c2ccc3c(c2)OCO3)c(OC)c1OC
    -9%, -25%
COCCCNC(=O)Cn1c(=O)n(Cc2ccc(C(=O)NCCc3ccc(OC)c(OC)c3)cc2)c(=O)c2ccccc21
    6%, i
Cc1ccc(NC(=O)CC2SC(=NCC3CCCO3)NC2=O)cc1Cl (centres undefined)
    -14%, -19%
CCOC(=O)c1sc2nc3c(SCCC#N)cc(C(=O)c4cc(F)ccc4O)cn3c(=O)c2c1C
    14%, 2%
O=C(CNS(=O)(=O)c1ccc(Br)s1)N1CCN(C(=O)c2ccco2)CC1
    -10%, -11%
Cc1ccc(-c2cc(C(=O)N3CCN(c4ccccc4O)CC3)c3ccccc3n2)o1
    -20%, ?
Cc1cccc(NCc2cc(Cl)cc(Cl)c2O)n1
    -7%, -15%
Nc1ncc([N+](=O)[O-])s1
    -7%, -7%
CN(C)c1ccc(NC(=O)c2sc(SCC(=O)Nc3ccc(Br)cc3)nc2N)cc1
    -7%, -17%
COc1cc(N(C)C)ccc1[C@]1(O)C(=O)N(C)c2ccc(Br)cc21
    11%, -4%
CC1CCCCN1C(=O)CSc1nc(-c2ccccc2)no1 (centres undefined)
    -5%, -15%
NC(=O)c1nnsc1-c1ccc(-c2snnc2C(N)=O)cc1
    -22%, i
Cc1ccc(NC(=O)c2cccn(Cc3ccccc3C)c2=O)c(C)c1
    -4%, -8%
COc1ccc(OC)c(NC(=O)Cn2ncc3c2-c2ccccc2OC3)c1
    -3%, -19%
O=C(CSc1nc(CCC2CCCC2)nc2ccccc12)NCc1ccc2c(c1)OCO2
    -22%, -5%
O=C(CCCN1C(=O)c2ccccc2C1=O)NCCc1ccc(OC(F)F)cc1
    -10%, i
O=C(CNC(=O)c1nn(Cc2ccccc2)c(=O)c2ccccc12)Nc1ccc(F)c(F)c1F
    -1%, -27%
N#CC1=C(S)N(c2ccccc2)C(c2cccs2)NC1=O (centres undefined)
    -3%, i
COc1ccc(NC(=S)NCCc2c[nH]c3ccccc23)c(OC)c1
    -16%, -13%
Cn1c(SCc2ccccn2)nnc1-c1ccccc1
    -1%, i
O=C(O)CC(NS(=O)(=O)Cc1ccccc1)c1cccc([N+](=O)[O-])c1 (centres undefined)
    -5%, -7%
COc1ccc(Nc2nc(NCC3CCCO3)c3ccccc3n2)c(OC)c1 (centres undefined)
    -24%, ?
CC[C@@H](C)C(N)c1cn([C@@H](CCC(=O)O)C(=O)N2CCNCC2)nn1 (some centres undefined)
    -16%, -23%
Cc1sc2nc(CN3CCCCC3)nc(N3CCN(C(=O)c4ccco4)CC3)c2c1C
    10%, -7%
COc1ccc(-c2nnn(CC(=O)N3CCN(c4ccc(F)cc4)CC3)n2)cc1
    4%, -8%
NC(Cc1ccc(C(F)(F)F)cc1)c1csc(Nc2ncccn2)n1 (centres undefined)
    -14%, -1%
COc1ccc(Nc2nc(Nc3ccc(OC)cc3OC)nc(N3CCN(C)CC3)n2)c(OC)c1
    -13%, -19%
O=P(OCC(F)(F)C(F)F)(N1CCCCC1)N1CCCCC1
    3%, i
O=C(C1CC(c2ccc(F)cc2)=NO1)N1CCN(Cc2ccccc2)CC1 (centres undefined)
    -6%, -13%
NC(=O)c1ccc(NC(=O)COC(=O)c2ccccc2SCC(=O)N2CCCC2)cc1
    -12%, -7%
Fc1ccc(NC(=S)Nc2ccc(Cl)cc2Cl)cc1
    -23%, -24%
Cc1nnc(-c2ccc(Cl)cc2)[nH]c1=O
    -13%, -2%
COc1cc2nc(SCC(=O)Nc3cccc(C)c3)n3nc(-c4ccccc4)nc3c2cc1OC
    -7%, -13%
O=C1NC(=O)/C(=C/c2cccc([N+](=O)[O-])c2)N1
    -3%, ?
O=C(Nc1cccnc1)C1CC(c2ccccc2O)=NO1 (centres undefined)
    -8%, i
COc1ccccc1N1CCN(CC(O)COc2ccc(C)cc2C)CC1 (centres undefined)
    -3%, -27%
Cc1ccc(S(=O)(=O)N(Cc2cccc(F)c2)C(=O)N2CCN(C)CC2)cc1
    9%, -5%
COC(=O)CSc1nnc(-c2sc3cc(OC)ccc3c2Cl)n1C
    -11%, -13%
COc1ccc(Cl)cc1-n1cc(-c2ccccc2)nc1SCC(=O)Nc1ccc(C)cc1
    -12%, -15%
O=C(O)c1ccc(S(=O)(=O)Nc2ccc3c(c2)OCCO3)cc1
    -6%, i

Copied from the results shown (2 entries):
Every second line gives: Vaccinia Venus, Vaccinia mCherry
COc1ccc(Cl)cc1-n1cc(-c2ccccc2)nc1SCC(=O)Nc1ccc(C)cc1
    -12%, -15%
O=C(O)c1ccc(S(=O)(=O)Nc2ccc3c(c2)OCCO3)cc1
    -6%, i

Compounds as they come; overall some 0.82% were active at least once.
